Source: PubChem (several laboratories)
ALR H2O2 inh = inhibitors of human ALR sulfhydryl oxidase, primary screen, biochemical, H2O2 detection, HRP-luminol luminescence, single point. FAD-linked sulfhydryl oxidase ALR (Homo sapiens), P55789. purified ALR, DTT oxidation. inhibition, % (concentration not given with the values). 290,000 compounds, 3.8% hits;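 active = mean and each replicate at 75% or more; inconclusive = only one of the two met; inactive = neither met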;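 also: stock transfer was 7.5 nL into about 7.5 µL; 0% = neutral wells and 100% = wells with inactivated enzyme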
Target sequence (P55789 whole entry, looked up): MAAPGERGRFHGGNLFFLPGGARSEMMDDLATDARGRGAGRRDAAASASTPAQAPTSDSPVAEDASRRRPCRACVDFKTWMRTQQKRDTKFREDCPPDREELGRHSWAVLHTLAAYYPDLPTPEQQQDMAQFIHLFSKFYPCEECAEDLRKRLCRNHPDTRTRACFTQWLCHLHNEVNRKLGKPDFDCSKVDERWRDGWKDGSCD
LANA-H2B inh = blockers of LANA interaction with H2A/H2B – biochemical, FP readout, HTS, primary screen; Protein LANA1 (Human herpesvirus 8 type P (isolate GK18)), Q9QR71; cell-free LANA-H2A/H2B peptide, fluorescence polarization; inhibition, % (test concentration not listed); 320,000 compounds, 0.6% hits; AID 2629, 2010; in the data active = inhibition mostly above about 10%, no sharp cut-off; inactive = mostly below about 6.7%;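 also: stock transfer was 7.5 nL into about 10 µL; 0% = median of vehicle wells and 100% = median of positive control wells; one replicate is shown; the record names a cut of 25% in any replicate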
Beta cell apopt = inhibitors of cytokine-induced beta cell apoptosis, primary screen, luminescence. 300,000 compounds, 0.8% hits. protection from apoptosis, % (test concentration not listed). INS-1E cytokine-induced death, ATP luminescence, 48 h; percent of positive-control rescue, neutral wells zero. AID 435005, 2010;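 active = all replicates at 75% or more, or half of them and the mean; inconclusive = half reach 75% but not the mean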;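 also: 0% = cytokine-treated negative control wells and 100% = positive control rescue; higher means more ATP so stronger rescue from cytokine killing; wells of about 40 µL received 100 nL stock; the first replicate is given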
T cruzi repl = inhibitors of intracellular T. cruzi growth, primary screen, luminescence, NIH3T3 host cells. T. cruzi beta-gal in NIH3T3, 90 h. inhibition, % (no concentration beside the values). 300,000 compounds, 1.4% hits. AID 1885, 2009;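 active = mean inhibition across valid replicates above about 55%, limit read from the data; inconclusive = mean below that limit but half or more replicates reach it; inactive = mean below it, under half of replicates reach it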;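 also: signal also drops with host cell toxicity which is not excluded here; 0% = plate median of DMSO wells and 100% = zero luminescence signal; higher percent means less beta-gal luminescence so fewer parasites; stock transfer was 50 nL into about 50 µL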
Calb FLC = C. albicans growth inhibition with fluconazole, primary screen, CaCi-2 strain, Alamar Blue fluorescence. C. albicans CaCi-2 (fluconazole-resistant clinical isolate) + fluconazole, 48 h. growth inhibition, % (no concentration beside the values). 300,000 compounds, 0.57% hits. AID 1979, 2009;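 active = most replicates above 75%; inconclusive = exactly half above 75%; inactive = most below 75%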;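 also: all wells also contain fluconazole at 8 µg/ml as a sub-toxic cotreatment; 0% = median of DMSO wells and 100% = median of geldanamycin control wells; wells of about 8 µL received 7.5 nL stock; the first replicate is given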
Bfl-1 A1 inh = caspase 3/7 activation in MEF A1-2A-BIM cells, primary screen, A1 inhibitor project, cell-based, luminescence, HTS; caspase activation, % (concentration not given with the values); 330,000 compounds, 0.066% hits; Caspase-Glo 3/7 luminescence, 3 h; percent of clofoctol response, vehicle zero;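 active = over half of replicate activation scores above 10%, or exactly half above 10 with the replicate mean above 10; inconclusive = replicate mean below 10 yet half the replicates above 10; inactive = over half of replicates below 10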;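 also: wells of about 30 µL received 50 nL stock; many hits fall short of the cut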
Ecoli rRNA inh = reduced GFP signal of wild-type E. coli, primary screen, bacterial rRNA inhibitor project, GFP/RFP fluorescence, OD600, single point; E. coli WT GFP vs humanized-ribosome RFP mutants, 24 h; stronger effect = lower value; DMSO median 0, no signal -100; GFP signal change (wild-type ribosome), % (test concentration not listed); 350,000 compounds, 1.6% hits; AID 720706, 2013;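 active = significant combined selectivity score with lowered wild-type GFP, culture density cut under 30%, mutant RFP and density less affected; inactive = any of these conditions unmet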; also: one replicate is shown; some compounds called inactive have numbers as strong as hits
B2AR ag = beta2AR agonists driving receptor internalization, primary screen, cell-based, FAP fluorogen, flow cytometry; Beta-2 adrenergic receptor (Homo sapiens), P07550; Am2.2-beta2AR cells; reference of the scale not given here; response, % (test concentration not listed); 340,000 compounds, 0.43% hits; AID 504454, 2011;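 active = response above a set limit, near 3 SD of response in nonfluorescent compounds, cut at about 42% in these data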;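 also: stock transfer was 100 nL into about 11 µL; a reference agonist was the positive control; negative values mostly stem from fluorescent compounds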
Target sequence (P07550 whole entry, looked up): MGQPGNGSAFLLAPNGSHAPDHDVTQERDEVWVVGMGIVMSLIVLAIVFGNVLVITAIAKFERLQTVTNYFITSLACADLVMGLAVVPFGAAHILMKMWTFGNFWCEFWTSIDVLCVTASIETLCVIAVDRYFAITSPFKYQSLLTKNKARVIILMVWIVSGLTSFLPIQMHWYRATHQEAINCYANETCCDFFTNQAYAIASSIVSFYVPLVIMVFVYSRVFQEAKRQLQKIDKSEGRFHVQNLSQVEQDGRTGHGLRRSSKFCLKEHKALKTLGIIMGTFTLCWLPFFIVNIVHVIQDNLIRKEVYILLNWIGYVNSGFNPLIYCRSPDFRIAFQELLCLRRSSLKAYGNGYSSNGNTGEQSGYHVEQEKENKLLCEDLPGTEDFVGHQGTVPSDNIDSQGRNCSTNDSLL
Ecoli rRNA inh OD600 = also measured in Ecoli rRNA inh; calls as there; OD600 change, %; measured here: OD600 growth;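 optical density of the mix in the first replicate; 0 = DMSO median and -100 = no signal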
Ecoli rRNA inh RFP = second read-out of Ecoli rRNA inh, no call of its own (marks repeat the call); RFP signal change, %; measured here: RFP humanized mutant strains;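 first replicate; 0 = DMSO median and -100 = no signal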
The depositor's hits bear a star; ? = inconclusive; · = not tested or not shown. Only part of the results is shown (hit frequency here may not be typical).

SMILES	ALR H2O2 inh	LANA-H2B inh	Beta cell apopt	T cruzi repl	Calb FLC	Bfl-1 A1 inh	Ecoli rRNA inh	Ecoli rRNA inh OD600	Ecoli rRNA inh RFP	B2AR ag
CCOc1cc(C2C(C(=O)c3ccco3)=C(O)C(=O)N2CCc2ccccc2)ccc1O (configuration not stated)	22	-1.3	-6	-10	8	0.5	·	·	·	-8
Cc1ccc(N=Nc2c(N)nn3c(C)cc(C)nc23)cc1	1	-2.5	9	9	38	-0.1	·	·	·	-13
CCOc1ccccc1N(C)C(=O)c1nn(-c2ccc(OC)cc2OC)c(=O)c2ccccc12	1	-2.3	-17	28	-8	1.1	-3	-13	-3.2	2
CCn1cc(S(=O)(=O)NCCc2ccc(F)cc2)cn1	2	0.7	1	0	4	-0.1	-3	2	-3.0	18
CCS(=O)(=O)c1nc(S(=O)(=O)c2ccc(Cl)cc2)c(NCc2ccco2)s1	4	-2.1	·	19	-7	1.5	·	·	·	-12
COc1ccc(CNC(=O)C(c2ccco2)N(C(=O)Cc2cccs2)c2cccnc2)cc1 (configuration not stated)	-1	-0.7	-3	3	2	1.1	8	3	1.6	-4
COc1cccc(-c2nnc(Nc3nc4c(F)cccc4s3)o2)c1	8	0.6	23	-16	-3	-3.1	·	·	·	16
COC(=O)c1sc(S(=O)(=O)N2CCN(c3ccc(OC)cc3)CC2)c(C(=O)OC)c1C	-3	0.3	3	26	-1	-0.2	·	·	·	15
CN(C)C(=O)c1cc(C(=O)c2ccccc2C(F)(F)F)c[nH]1	8	0.2	-7	-9	-17	0.3	2	1	-2.0	-2
CCCCOc1ccc(CSc2n[nH]c(C)n2)cc1	-2	-3.9	-6	-14	-1	-1.9	·	·	·	-5
Cn1nnc(NC(=O)c2ccc(C(C)(C)C)cc2)n1	3	6.3	1	18	46	-1.0	·	·	·	-1
CC(C)(C)NC(=O)C1Cc2ccccc2CN1C(=O)Nc1ccccc1Cl (configuration not stated)	0	-3.0	-4	6	0	0.0	·	·	·	-1
CCOc1ccc2cc(C3CC(c4ccco4)=NN3S(=O)(=O)c3ccccc3)c(Cl)nc2c1 (configuration not stated)	1	2.3	2	-11	-10	0.0	·	·	·	-7
COc1cc(C(CC(=O)N2CCCC2)c2c(OC)cc(OC)c3ccc(=O)oc23)cc(OC)c1OC (configuration not stated)	-5	-0.4	-1	5	8	0.3	8	0	-3.3	-2
CC(C)C(=O)OCc1cn(-c2ccc(Cl)c(Cl)c2)nn1	1	-4.8	-4	3	10	-0.7	19	13	0.5	1
NS(=O)(=O)c1ccc(NC(=O)CN2CCCC2)cc1	-3	-1.1	-3	0	-16	1.9	16	11	3.0	5
Cc1ccc2cc(C=O)c(N(C)C)nc2c1	-16	-3.2	0	-2	16	0.0	·	·	·	6
CC(C)c1ccc(S(=O)(=O)NCc2ccc3c(c2)OCO3)cc1	-6	4.6	-1	-5	-26	0.0	0	2	5.1	4
O=C(Nc1ccc(Oc2ccccc2)cc1)C1CCN(c2c3c(nc4ncnn24)CCC3)CC1	·	4.4	58	10	23	-0.8	·	·	·	2
N#CCCC(CCC#N)(CCC#N)c1cc[n+](CCc2ccccn2)cc1	·	1.5	-2	-7	-7	0.3	8	16	-8.4	0
CC(C)CC1Nc2ccc(C(=O)NCc3ccc4c(c3)OCO4)cc2NC1=O (configuration not stated)	-1	2.6	-5	7	-13	0.5	·	·	·	-3
COc1ccc(C(=O)N/N=C/C(=O)c2ccccc2)cc1	·	·	·	-2	-7	·	7	7	-0.5	0
O=C(N=C1SC2CS(=O)(=O)CC2N1Cc1ccccc1Cl)C1CC1 (configuration not stated)	-2	10.0	-1	-11	2	0.2	10	12	-1.4	-1
CC(=O)C1=C(c2ccccc2)OC(N)=C(C#N)C1c1ccc(O)cc1 (configuration not stated)	34	-3.3	-4	-9	-23	1.0	-5	-5	-0.3	-3
CCC1CCC(C(=O)NC(C(=O)NCCCN2CCCCC2C)C(C)C)CC1 (configuration not stated)	-3	6.1	-10	2	-9	0.6	8	1	11	-6
COc1ccccc1-c1nnc(SCC(=O)c2c(N)n(C3CC3)c(=O)[nH]c2=O)o1	-6	-2.2	-3	·	·	0.0	5	6	-2.3	0
CC(=O)Nc1ccc(Cc2nc3c([nH]2)c(=O)n(C)c(=O)n3C)cc1	-16	-2.1	-8	4	-6	0.9	·	·	·	·
Cc1cccc(C(=O)N2CCN(S(=O)(=O)N3CCCCC3)CC2)c1	-6	4.0	1	7	-2	0.3	7	1	0.5	-4
CC(C)C(=O)Nc1ccc([N+](=O)[O-])c(C(F)(F)F)c1	0	-5.5	·	-6	·	0.1	·	·	·	-7
COc1ccc(-c2cc(C(=O)NCc3cccnc3)no2)cc1OC	-6	-5.2	31	-5	-2	0.4	·	·	·	1

Complete entries from above.
CCC1CCC(C(=O)NC(C(=O)NCCCN2CCCCC2C)C(C)C)CC1 (configuration not stated) is listed with ALR H2O2 inh: -3; LANA-H2B inh: 6.1; Beta cell apopt: -10; T cruzi repl: 2; Calb FLC: -9; Bfl-1 A1 inh: 0.6; Ecoli rRNA inh: 8; Ecoli rRNA inh OD600: 1; Ecoli rRNA inh RFP: 11; B2AR ag: -6
COc1ccc(C(=O)N/N=C/C(=O)c2ccccc2)cc1 is listed with ALR H2O2 inh: ·; LANA-H2B inh: ·; Beta cell apopt: ·; T cruzi repl: -2; Calb FLC: -7; Bfl-1 A1 inh: ·; Ecoli rRNA inh: 7; Ecoli rRNA inh OD600: 7; Ecoli rRNA inh RFP: -0.5; B2AR ag: 0

(further entries)
SMILES	ALR H2O2 inh	LANA-H2B inh	Beta cell apopt	T cruzi repl	Calb FLC	Bfl-1 A1 inh	Ecoli rRNA inh	Ecoli rRNA inh OD600	Ecoli rRNA inh RFP	B2AR ag
c1ccc(CNc2c3ccccc3nc3ccccc23)cc1	-9	-2.5	98*	57*	1	-0.5	-14	-70	-3.5	7
O=C1CCN(c2ccc([N+](=O)[O-])cc2F)CC1	46	2.6	1	-14	24	-0.1	-7	7	15	-4
Cc1cccc(N2CCN(C(c3cccs3)c3nnnn3C(C)(C)C)CC2)c1C (configuration not stated)	0	3.1	13	28	-3	0.2	·	·	·	8
O=C(/C=C/c1ccccc1)N/C(=C/c1ccccc1)C(=O)Nc1cccc(C(=O)O)c1	5	-17	-2	-3	3	0.6	-8	-8	2.7	2
CCC(C)NC(=O)COc1ccc(S(=O)(=O)N2CCOCC2)cc1 (configuration not stated)	63	4.8	0	-10	-19	0.3	·	·	·	-5
O=C(CCc1ccc(O)cc1)c1c(O)cc(O)cc1O	53	4.3	3	4	-7	-1.6	-11	-10	2.8	5
COc1ccc2c(c1)c(=O)oc1c(C)c(OCc3ccc(C(=O)O)cc3)ccc12	-18	3.9	5	4	5	0.6	5	1	1.6	10
COc1ccc(C2c3ccc(O)cc3Oc3ncn4nc(-c5ccccn5)nc4c32)cc1 (configuration not stated)	5	-1.1	13	18	-2	-0.1	7	3	0.4	-6
CCN(CC(=O)NCc1ccc(Cl)cc1)C(=O)CSc1ccc(F)cc1	0	2.6	·	0	8	1.4	-15	-25	-2.5	-2
O=C(c1ccc(Br)cc1)N(C1=NCCCCS1)c1ccccc1	0	0.6	1	17	-22	-0.1	·	·	·	14
COc1ccc(C2C(C(=O)N3CCN(c4ccccn4)CC3)CCC(=O)N2c2ccc(OC)cc2)cc1 (configuration not stated)	-3	3.3	-12	-3	-12	0.5	12	-7	3.5	-9
CCn1c(SCCOc2ccc(Cl)cc2)nnc1-c1cccs1	-27	10	0	9	0	0.2	·	·	·	-17
Cc1cc(C)c(OCC(=O)NCC2CCCO2)c(C)c1 (configuration not stated)	-7	-3.8	0	-3	2	0.6	4	2	-1.4	5
O=C(Nc1nnc(S(=O)(=O)N2CCCCC2)s1)c1ccc(Cl)cc1	-12	-3.3	38	8	1	0.1	1	10	-8.4	-6
Cc1nn(-c2ccccc2)c(C)c1/C=N/NC(=O)CSc1nnc(-c2ccccc2)n1-c1ccc(Cl)cc1	-8	-3.6	3	13	38	0.3	·	·	·	-7
N#CCCN1CCN(S(=O)(=O)c2ccc3c(c2)CCC3)CC1	-1	0.6	5	·	·	0.2	·	·	·	1
O=C(NCc1ccc2c(c1)OCO2)c1ccc(Br)s1	-5	-3.8	4	-6	-4	1.1	-6	-13	-5.4	-11
Nc1nonc1-n1nnc(C(=O)N/N=C/c2ccco2)c1CSc1ccccc1	2	7.4	-3	15	33	0.4	8	5	1.0	-10
CCCCNC(=O)c1ccccc1NC(=O)c1ccccc1N(C)S(C)(=O)=O	·	1.6	-2	-4	5	0.1	·	·	·	-6
COc1ccc(C(CNC(=O)c2cccc(S(=O)(=O)Nc3ccc(C)cc3)c2)N2CCOCC2)cc1 (configuration not stated)	3	-2.0	-1	5	2	-0.7	-3	-18	3.1	-3
Cc1ccc2c(CSc3nnnn3C)cc(=O)oc2c1	3	3.2	-2	-5	-12	-0.9	17	12	3.6	-8
COc1ccc(OC)c(NC(=O)COc2ccc3c(c2)CCC3)c1	-3	-3.8	-6	·	·	-0.2	-14	-2	3.8	0
CCSC1=NC2(CCCCC2)Nc2sc3c(c21)CCCC3	34	0.5	-7	56*	3	-0.1	·	·	·	8
Cc1ccc(NC(=O)CN(C)C(=O)C2CC(=O)N(Cc3ccccc3)C2)cc1 (configuration not stated)	-3	5.4	-5	-7	-2	0.8	11	18	0.6	13
O=C1c2cccnc2C(Nc2ccccc2Br)N1Cc1ccco1 (configuration not stated)	56	-2.3	-2	-4	9	1.1	10	9	1.2	3
COc1ccc(C2C3=C(N=C4SCC(=O)N42)c2ccccc2CC3)cc1OC (configuration not stated)	-13	-8.6	4	15	?	0.8	5	3	8.5	-4
O=C(O)C1CCCN(S(=O)(=O)c2ccc(Cl)s2)C1 (configuration not stated)	-38	0.7	·	-1	6	1.0	-4	-20	-2.4	-1
